Choline anaer gr: growth inhibitors of anaerobic choline-fed gram-negatives, minimal medium, absorbance | Gram-negative bacterium anaerobic choline minimal medium; stronger effect = lower value; many inactives read as strong as hits in the columns shown | calls only | 0.2% of 55,000 active | AID 1963822, 2024;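 active = growth z-score on choline under -2 at 7 or 20 h with little or no fall on glycerol, limits in tiers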;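 also: stock transfer was 300 nL into about 50 µL; the organism is E. coli; final concentration not given here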
Choline anaer gr early: recorded beside Choline anaer gr, whose call it bears; z-score; measured here: choline growth z-score, timepoint 1;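 score of optical density at 7 h as mean of two plates; lower means less growth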
* = called active by the depositor; i = inactive; & = joins results of further samples. Not all compounds are listed; rates above refer to the full screens.

Below each SMILES – Choline anaer gr, Choline anaer gr early
CCCCC(=O)Nc1nn2c(C3CCCCC3)nnc2s1
    i, 0.01
CCOCCCNC(=O)C1CCCN(c2nccnc2Oc2ccc(C)cc2)C1 (stereo not given)
    i, 0.04
Cn1c(=O)c(=O)n(C)c2cc(Oc3ccccc3)c(NS(=O)(=O)c3ccccc3Cl)cc21
    i, 0.26
O=C(NCCC1=CCCCC1)C1CCCN(c2nn3c(=O)c4c(nc3s2)CCCC4)C1 (stereo not given)
    i, -0.04
COc1ccc(Nc2nc(C(=O)N3CCN(c4ccc(Cl)cc4)CC3)cc3occc23)cc1
    i, 0.51
CN1C(=O)Cc2cc(S(=O)(=O)N3CCC(c4nnc(C(=O)Nc5ccccc5)s4)CC3)ccc21
    i, -1.4
O=C(NCc1ccc2c(c1)OCO2)C1CCC(=O)N1CCc1ccccc1 (stereo not given)
    i, -0.69
CCOc1ccc(-c2cc3c(=O)n(Cc4nc(-c5ccccc5C)no4)ncn3n2)cc1
    i, 0.15
Fc1ccc(-c2nnc3sc(-c4cc5ccccc5[nH]4)nn23)cc1
    i, -2
O=C(c1cccs1)N1CCCCC1CCN1CCOCC1 (stereo not given)
    i, -0.39
Cc1ccc(NS(=O)(=O)c2cc(-c3nc(C(C)C)cs3)cs2)cc1C
    i, 1.4
O=C1Nc2ccccc2NC12CCOCC2
    i, 0.29
COC(=O)c1sccc1NC(=O)N1CCc2c([nH]c3ccccc23)C1c1ccc(OC)cc1 (stereo not given)
    i, 1.8
CCC(=O)Nc1nc2ccc(CC(=O)NCCCN3CCc4ccccc4C3)cc2s1
    i, -0.79
O=c1[nH]c2ccc(S(=O)(=O)Nc3ccc(Br)cc3F)cc2[nH]1
    i, -0.02
Cc1c(C)n(-c2ccccc2)c2nc(C(=O)Nc3ccccc3F)nc(N3CCCC3)c12
    i, -0.24
CCC(=O)N1CCCC1c1nc2ccccc2n1CCCCOc1ccccc1C (stereo not given)
    i, 0.53
COc1ccc(CN2CCCC2c2cc(C(C)C)on2)cc1 (stereo not given)
    i, -0.68
COc1cccc(C(Nc2nc(C)cc(C)n2)c2c(NC(=O)c3ccccc3)sc(C)c2C)c1 (stereo not given)
    i, -0.04
Cc1csc(-c2cc(S(=O)(=O)Nc3ccc(F)cc3Cl)c(C)s2)n1
    i, 1
CN(CC1(C)CCOCC1)S(=O)(=O)c1ccc(Cl)s1
    i, -0.21
CC(=O)Nc1ccc(C(=O)NCCCn2c(-c3ccc(C)cc3)nc3cccnc32)cc1
    i, -0.03
CCOc1ccc(N2C(=O)CN(Cc3ccccc3)[C@H]3CS(=O)(=O)C[C@H]32)cc1
    i, -1.6
Cc1cc(=O)n2c(n1)NC(Nc1ccccc1)=NC2c1ccccc1 (stereo not given)
    i, -0.64
Cc1ccc(OCC(=O)OC2=C(C(=O)c3ccccc3)N(C)S(=O)(=O)c3ccccc32)cc1
    i, 0.05
CC(C)n1cnc(S(=O)(=O)N2CCC(C(=O)N3CCN(c4ccccn4)CC3)CC2)c1
    i, 0.15
NC(=O)c1c(NC(=O)c2csnn2)sc2c1CCCC2
    i, 0.62
O=C(Nc1ccc(Br)cc1F)C1CCCN(c2nc3cccnc3s2)C1 (stereo not given)
    i, -0.68
Cc1ccc(C(=O)N(CCN2CCN(c3ccccc3)CC2)CCS(=O)(=O)N2CCNCC2)cc1
    i, -0.59
CCCNC(=O)C1CCN(C(=O)N2CCOc3ccc(Cl)cc32)CC1
    i, -1.9
Cc1ccc(-c2nc3sc(CCNC(=O)c4ccc(C)c(C)c4)c(C)n3n2)cc1
    i, -0.06
CC1(C)C(=O)N(CC(=O)N2CCN(c3cccc(Cl)c3)CC2)c2ccccc21
    i, -0.05
CCOC(=O)c1nc2ccccc2n(C(=O)c2cccc(F)c2)c1=O
    i, 0.78
Cc1ccc(-c2noc(-c3cc(N4CCOCC4)nc4ccccc34)n2)cc1
    i, 0.45
Cc1ccc(CN2C(=O)c3[nH]c4ccccc4c3SCC2(C)C(=O)NC2CCCC2)cc1 (stereo not given)
    i, -0.22
Cc1cc(S(=O)(=O)N2CCN(Cc3nc4cc(C(=O)N5CCCC5)ccc4n3C)CC2)ccc1F
    i, -0.16
Cc1nc(-n2nc(C)c(Cl)c2C)sc1C(=O)N1CCN(C)CC1
    i, -1.5
CCC(=O)N1CCc2cc(N3CC(C(=O)Nc4ccc5c(c4)OCCO5)CC3=O)ccc21 (stereo not given)
    i, -0.27
Fc1ccc(C2CCCN2Cc2ccc(F)c(F)c2)cc1 (stereo not given)
    i, -0.24
COc1ccc2[nH]cc(CCNC(=O)CCc3c(C)nc4c(c3C)c(=O)n(C)c(=O)n4C)c2c1
    i, 0.22
CC1(C(=O)NC2CCCC2)Cn2c(ccc2-c2ccccc2)C(=O)N1CCC1=CCCCC1 (stereo not given)
    i, 1.2
Cc1c(NC(=O)c2cc(-c3cccnc3)n(-c3ccc(F)cc3)n2)c(=O)n(-c2ccccc2)n1C
    i, -1.1
CN1CCc2c(sc3c2CN(C(=O)Nc2ccccc2)C(c2ccc(F)cc2)c2cccn2-3)C1 (stereo not given)
    i, 0.17
Fc1ccc(OCc2nnc3sc(-c4cc5ccccc5[nH]4)nn23)cc1
    i, 0.08
c1ccc(Nc2nc(N3CCOCC3)nc3c2cnn3-c2ccccc2)cc1
    i, 0.29

Taken from above.
CCC(=O)N1CCc2cc(N3CC(C(=O)Nc4ccc5c(c4)OCCO5)CC3=O)ccc21 (stereo not given) in Choline anaer gr early → -0.27
CC1(C(=O)NC2CCCC2)Cn2c(ccc2-c2ccccc2)C(=O)N1CCC1=CCCCC1 (stereo not given) in Choline anaer gr early → 1.2
Cc1ccc(-c2nc3sc(CCNC(=O)c4ccc(C)c(C)c4)c(C)n3n2)cc1 in Choline anaer gr early → -0.06
Fc1ccc(C2CCCN2Cc2ccc(F)c(F)c2)cc1 (stereo not given) in Choline anaer gr early → -0.24
c1ccc(Nc2nc(N3CCOCC3)nc3c2cnn3-c2ccccc2)cc1 in Choline anaer gr early → 0.29
Cc1cc(S(=O)(=O)N2CCN(Cc3nc4cc(C(=O)N5CCCC5)ccc4n3C)CC2)ccc1F in Choline anaer gr early → -0.16
Cc1ccc(CN2C(=O)c3[nH]c4ccccc4c3SCC2(C)C(=O)NC2CCCC2)cc1 (stereo not given) in Choline anaer gr early → -0.22

Next section.
Below each SMILES – Choline anaer gr, Choline anaer gr early
Fc1ccc(C2CCCN2Cc2cc(F)cc(F)c2)cc1 (stereo not given)
    i, 0.43
COc1ccc(NC(=O)c2ccc3c(c2)N(C)C(=O)c2ccccc2O3)c(OC)c1
    i, 1.6
CCOC(=O)c1[nH]c(C)c(S(=O)(=O)Nc2c(C)n(C)n(-c3ccccc3)c2=O)c1C
    i, -0.57
CC(C)Cc1ccc(S(=O)(=O)N2CCCC2c2cc(C(C)C)no2)cc1 (stereo not given)
    i, 2.8
Cc1ccc(S(=O)(=O)N2C(=O)CCC2C(=O)N2CCc3ccccc32)cc1C (stereo not given)
    i, -0.6
O=C(Nc1ccc(S(=O)(=O)N2CCCC2)cc1)C1c2ccccc2Oc2ccccc21
    i, -1.4
CCc1cccc2c3c([nH]c12)[C@](CC)(CC(=O)O)OCC3
    i, 0.35
O=C(Nc1ccc(Br)cc1)N1CCN(c2ccc(-c3noc(C4CCC4)n3)cc2)CC1
    i, 0.87
C=CC(=O)Nc1ccc2ncnc(Nc3cccc(Br)c3)c2c1
    i, 0.43
CC(C)(C)C(=O)N1CCCN(Cc2ccccn2)CC1
    i, -0.61
Cc1nnc(-c2c(C)[nH]c(C)c2S(=O)(=O)N2CCN(C(C)C)CC2)o1
    i, -1.1
COc1ccc(NC(=O)c2nn(C)c3c2CSc2ccc(Cl)cc2-3)cc1OC
    i, 0.79
N#Cc1c(-c2ccccc2)no[n+]1[O-]
    i, -0.07
Cc1ncc(CO)c2cc(C(=O)Nc3ccc(S(N)(=O)=O)cc3)c(=O)oc12
    i, 0.05
CCOc1ccc(CC(=O)N2CCC(c3ccncc3)CC2)cc1OCC
    i, -0.43
CCCn1c(=O)oc2cc(NS(=O)(=O)c3ccc4c(c3)n(C)c(=O)n4C)ccc21
    i, -1.9
O=C(Nc1ccc(N2CCC(c3ccccc3)C2)c(C(=O)O)c1)c1ccc(Cl)cc1 (stereo not given)
    i, -0.55
COc1ccc(CCNC(=O)c2cc(C3CC3)[nH]n2)cc1OC
    i, -0.37
CCOC(=O)c1noc2nc(C)nc(NCCCN3CCN(c4cccc(C)c4)C(C)C3)c12 (stereo not given)
    i, -0.33
COC(=O)CN(c1nc2nc(C)c(Cl)c(C)n2n1)S(=O)(=O)c1ccc(C)cc1
    i, -2
CCOC(=O)c1noc2ncnc(Nc3ccc(C)cc3Br)c12
    i, 1.2
Cc1ccccc1NC(=O)C(C)Sc1nnc2cc(C)c3ccccc3n12 (stereo not given)
    i, 0.89
Cc1nn(C)c2nc(OC(C)C(=O)Nc3ccc4c(c3)OCO4)cc(C(F)(F)F)c12 (stereo not given)
    i, -0.21
c1nc2nc3c(c(Nc4ccc(N5CCOCC5)cc4)n2n1)CCC3
    i, 0.82
CCS(=O)(=O)N1CCCc2cc(C(=O)N3CCN(c4ccc(OC)cc4)CC3)ccc21
    i, -2.1
Cc1ccc(-c2n[nH]c(CCNS(=O)(=O)c3cc(F)ccc3C)n2)cc1
    i, -0.76
CCN1c2cc(C)ccc2-n2cccc2C12CCNCC2
    i, -0.63
Cc1nc2ccccc2n(Cc2ccc(C(=O)NCc3cccnc3)cc2)c1=O
    i, -0.97
COc1ccccc1NC(=O)N1CCN(c2nnc(C)c3c(C)n(-c4ccccc4)nc23)CC1
    i, -1.6
O=C(c1sc2ncccc2c1-n1cccc1)N1CCCC1
    i, -2.2
C[C@]12CCC(=O)C=C1CC[C@@H]1[C@H]2C(O)C[C@@]2(C)[C@H]1CC[C@@]2(O)C(=O)CO (stereo not given in full)
    i, 0.18
CCc1cc(Sc2ccc(N)cc2)n2ncnc2n1
    i, -0.89
CCCc1nnc2sc(COc3ccccc3OCC)nn12
    i, 0.29
COCCNC(=O)N1CCCn2nc(-c3ccc(C(F)(F)F)cc3)cc2C1
    i, 0.05
CCOC(=O)c1cc(-c2ccccc2)sc1NC(=O)Cc1csc(-c2ccccc2)n1
    i, -0.59
COc1ccc(Cl)cc1NC(=O)c1nnn(Cc2ccc(Br)cc2F)c1N
    i, 1.1
Cc1cccc(NC(=O)NC(Cc2ccc3c(c2)OCO3)Cc2ccc3c(c2)OCO3)c1
    i, 0.75
COc1ccccc1CC(=O)Nc1ccc(-c2noc(-c3ccc(OC)c(OC)c3)n2)cc1
    i, 0.82
CC(C)(C)NC(=O)c1ccc2c(c1)CCN2C(=O)C1CC1
    i, 0.34
COC(=O)c1c(-c2cccc(Cl)c2)noc1N1CCc2ccccc21
    i, 1.4
Cc1cc(C)c(NC(=O)c2cnn3c(C)cc(C)nc23)c(C)c1
    i, -0.41
Cc1ccc(Cn2c(=O)c(N3CCC(C(=O)NCc4ccc(Cl)cc4)CC3)nc3ccccc32)cc1
    i, -0.68
COc1ccc(CCNc2cc(C)nc3c(C)c(-c4ccc(OC)c(OC)c4)nn23)cc1OC
    i, 0.36
C[C@@]1(C2CCCC2)Cc2cc(OCC(=O)O)c(Cl)c(Cl)c2C1=O
    i, 0.75&0.36
Brc1ccc(Nc2cc(-c3ccccc3)ncn2)cc1
    i, 1.3

Exported as a markdown table: five of the compounds above.
| mol | Choline anaer gr | Choline anaer gr early |
| --- | --- | --- |
| COCCNC(=O)N1CCCn2nc(-c3ccc(C(F)(F)F)cc3)cc2C1 | i | 0.05 |
| Cc1cc(C)c(NC(=O)c2cnn3c(C)cc(C)nc23)c(C)c1 | i | -0.41 |
| COc1ccccc1CC(=O)Nc1ccc(-c2noc(-c3ccc(OC)c(OC)c3)n2)cc1 | i | 0.82 |
| CCCc1nnc2sc(COc3ccccc3OCC)nn12 | i | 0.29 |
| C[C@]12CCC(=O)C=C1CC[C@@H]1[C@H]2C(O)C[C@@]2(C)[C@H]1CC[C@@]2(O)C(=O)CO (stereo not given in full) | i | 0.18 |

The listing continues:
Below each SMILES – Choline anaer gr, Choline anaer gr early
CCc1nc(-c2csc(S(=O)(=O)N3CCC(C(=O)N4CCCCC4)CC3)c2)no1
    i, 0.43
Cc1sc2ncc(C(=O)N3CCN(c4ccccc4)CC3)c(=O)n2c1C
    i, -1.2
CCCNC(=O)c1ncn2c1C(=O)N(CCC)C(C)(C(=O)NCCC(C)C)C2 (stereo not given)
    i, 0.42
O=C(NC1CCCC1)c1ccc(Nc2ccnc(-c3ccc(F)cc3)n2)cc1
    i, -0.73
Cc1cc(C)n(CCc2nc3c4ccccc4n(CC(=O)c4ccc(F)cc4)c(=O)n3n2)n1
    i, -0.16
COc1cc(-c2noc(CCCn3c(=O)[nH]c4cc5c(cc4c3=O)OCO5)n2)ccc1OC(C)C
    i, -1.6
CCCc1nnc2n1NC(c1ccc(CC)cc1)C(C(=O)Nc1cc(C)ccc1C)S2 (stereo not given)
    i, 1.1
Cc1sc(C)c(S(=O)(=O)N2CCC3(CC2)OCCO3)c1-c1cc(C(F)(F)F)on1
    i, 0.7
COc1ccc(OC)c(NC(=O)N2CCN(c3nc4cc(Br)ccc4n4cccc34)CC2)c1
    i, 1.5
COc1cc(NC(=O)c2cncc(-c3ccc(F)cc3)c2)cc(OC)c1
    i, 1.2
CN(CC[C@@H](Oc1ccc(C(F)(F)F)cc1)c1ccccc1)CC(=O)O
    i, 0.64
CCN(CC)S(=O)(=O)c1ccc(NC(=O)N2CCCC(C(=O)Nc3ccc(OC)cc3)C2)s1 (stereo not given)
    i, -0.18
CCC(CO)Nc1nc(NCc2ccccc2)c2ncn(C(C)C)c2n1 (stereo not given)
    i, 0.64
Cn1c(=O)c(=O)n(C)c2cc3c(cc21)[nH]c(=O)c(=O)n3Cc1ccccc1
    i, -1.9
Nc1nc2c(c(=O)[nH]1)C(c1ccc(OCc3ccccc3Cl)cc1)CC(=O)N2 (stereo not given)
    i, -1.5
COC(=O)c1ccc(C2C(Oc3ccccc3C)C(=O)N2c2cccc(Cl)c2)cc1 (stereo not given)
    i, -1.6

Assay outcomes: PubChem BioAssay, ICCB-Longwood Screening Facility, Harvard Medical School
